Source: PubChem
BJeLR viability – compounds reducing viability of BJeLR cells | BJeLR fibroblasts viability, CellTiterGlo ATP luminescence, 48 h; HRASV12, hTERT and SV40 LT/ST transformed | 0.64% of 30,000 active | viability loss activity score, % (concentration not given with the values); in the data active means viability loss activity score above about 50%; about a fifth of its hits are not listed in these tables;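 further: higher score means fewer live cells and less ATP luminescence; stock transfer was 50 or 100 nL into about 30 µL; 0% = vehicle wells and 100% = a reference killing control; one replicate is shown; the record names a cut of 85%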
A1 inh – A1 inhibition; AID 2241; caspase activation, % (no concentration beside the values); 0.51% of 21,000 active; MEF A1-2A-BIM cells, caspase-Glo luminescence, 3 h; percent of clofoctol signal, DMSO as zero;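 active means most replicate scores above 10, or exactly half above 10 with mean activity above 10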;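 further: effector caspase 3 and 7 activity cleaving a DEVD luciferin substrate; 50 nL library stock added to about 30 µL; numbers are from one replicate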
The depositor's hits bear a star.

What do the screens show for `Cc1ccc(S(=O)(=O)N(C)C[C@@H]2Oc3ccc(NC(=O)C4CCCCC4)cc3C(=O)N([C@@H](C)CO)C[C@@H]2C)cc1`?
BJeLR viability: -6.2; A1 inh: 0.5

How did CCN(CC)C(=O)c1cccc(C(=O)N(CC)CC)c1 do in these assays?
BJeLR viability: -0.4; A1 inh: 0.0

How did CC(C)=CCC[C@@](C)(O)[C@H]1CC[C@]2(C)C1CC(O)C1[C@]3(C)C(CC[C@]12C)C(C)(C)[C@@H](O)C[C@H]3O (stereo not given in full) do in these assays?
BJeLR viability: -2.1; A1 inh: -0.4

How did O=C(c1ccccc1Cl)N1CCC(n2cccc2)CC1 do in these assays?
BJeLR viability: 2.4; A1 inh: -0.1

What do the screens show for `C[C@@H]1CN([C@@H](C)CO)C(=O)c2cc(NC(=O)CCCN(C)C)ccc2O[C@@H]1CN(C)Cc1ccncc1`?
BJeLR viability: -0.2; A1 inh: 0.1

How did C[C@@H]1CN([C@H](C)CO)C(=O)c2cccc(NC(=O)c3cnccn3)c2O[C@H]1CN(C)C(=O)Nc1cccc2ccccc12 do in these assays?
BJeLR viability: -6.1

Results for Cc1noc(C)c1NC(=O)N(C)C[C@@H]1Oc2c(NS(=O)(=O)c3ccc(Cl)cc3)cccc2C(=O)N([C@@H](C)CO)C[C@@H]1C ?
BJeLR viability: -0.8

What do the screens show for `COc1ccc(Nc2cc(C)nc(-c3ccccc3)n2)cc1`?
BJeLR viability: 1.0; A1 inh: -1.3

How did COc1ccc(NC(=O)Nc2cccc3c2O[C@@H](CN(C)S(=O)(=O)c2ccc(Cl)cc2)[C@H](C)CN([C@@H](C)CO)C3=O)cc1 do in these assays?
BJeLR viability: -0.5

How did C/C=C(\C)C(=O)O[C@@H]1[C@@H](OC(C)=O)C2[C@@]3(C)CC[C@H](OC4CC(OC)C(OC5CC(OC)C(OC6CC(OC)C(OC7OC(C)C(OC8OC(CO)C(O)C(O)C8O)C(OC)C7O)C(C)O6)C(C)O5)C(C)O4)CC3=CC[C@@]2(O)[C@@]2(O)CC[C@H](C(C)=O)[C@@]12C (stereo not given in full) do in these assays?
BJeLR viability: -14; A1 inh: 0.9

Some of these compounds in order of length of the SMILES, ascending.
How did CCN(CC)C(=O)c1cccc(C(=O)N(CC)CC)c1 do in these assays?
BJeLR viability: -0.4; A1 inh: 0.0

What do the screens show for `C[C@@H]1CN([C@@H](C)CO)C(=O)c2cc(NC(=O)CCCN(C)C)ccc2O[C@@H]1CN(C)Cc1ccncc1`?
BJeLR viability: -0.2; A1 inh: 0.1

How did CC(C)=CCC[C@@](C)(O)[C@H]1CC[C@]2(C)C1CC(O)C1[C@]3(C)C(CC[C@]12C)C(C)(C)[C@@H](O)C[C@H]3O (stereo not given in full) do in these assays?
BJeLR viability: -2.1; A1 inh: -0.4

Later entries.
What do the screens show for `CCc1nc(NCCN2CCOCC2)c(C#N)c2c1CCCC2`?
BJeLR viability: -2.6; A1 inh: -0.2

How did CCOC(=O)c1cn(CC)c2cc(F)c(F)cc2c1=O do in these assays?
BJeLR viability: -5.1; A1 inh: 0.2

Results for COc1ccc(S(=O)(=O)Nc2ccc3c(c2)C(=O)N([C@H](C)CO)C[C@H](C)[C@H](CN(C)C(=O)NC(C)C)O3)cc1 ?
BJeLR viability: -1.7; A1 inh: 0.2

Results for C[C@H]1CN([C@@H](C)CO)C(=O)c2cc(NC(=O)Cn3cnnn3)ccc2O[C@H]1CN(C)C(=O)Nc1ccccc1 ?
BJeLR viability: -2.8; A1 inh: -1.0

What do the screens show for `CCC/C=C/C=C/C1C[C@@H](O)[C@@H](O)C(=O)[C@H]1CO` (stereo not given in full)?
BJeLR viability: -3.7; A1 inh: 1.0

How did O=C(Cc1ccccc1)NCCc1c[nH]c2ccccc12 do in these assays?
BJeLR viability: -0.3; A1 inh: 0.1

Results for COc1ccc(NS(=O)(=O)c2ccc(N3C(=O)CC4(CCCC4)C3=O)c(Cl)c2)c(OC)c1 ?
BJeLR viability: 2.5

What do the screens show for `O=C(NCc1ccc2c(c1)OCO2)C1CCCCC1`?
BJeLR viability: -3.2; A1 inh: -0.7

What do the screens show for `C[C@@H]1CN([C@H](C)CO)C(=O)c2cccc(NC(=O)Nc3ccc(C(F)(F)F)cc3)c2O[C@@H]1CN(C)Cc1ccncc1`?
BJeLR viability: -9.7

What do the screens show for `Cc1cccc(NC(=O)C23CC4CC(C2)CC(n2nnc(C)n2)(C4)C3)c1`?
BJeLR viability: -5.3

What do the screens show for `C[C@H]1CN([C@@H](C)CO)C(=O)c2cc(NC(=O)CCCN(C)C)ccc2O[C@@H]1CN(C)C(=O)Nc1ccc2c(c1)OCO2`?
BJeLR viability: -1.7; A1 inh: -0.6

Results for Cc1noc(C)c1NC(=O)N(C)C[C@@H]1Oc2c(NC(=O)c3ccc(-c4nccs4)cc3)cccc2C(=O)N([C@@H](C)CO)C[C@@H]1C ?
BJeLR viability: 15

What do the screens show for `C[C@H]1CN([C@@H](C)CO)C(=O)c2cccc(NC(=O)C3CCOCC3)c2O[C@@H]1CN(C)S(=O)(=O)c1cn(C)cn1`?
BJeLR viability: 0.4

Results for C[C@H](CO)N1C[C@H](C)[C@@H](CN(C)S(=O)(=O)c2ccccc2)Oc2ccc(NC(=O)Nc3cccc4ccccc34)cc2C1=O ?
BJeLR viability: -9.5; A1 inh: -0.1

How did C[C@@H]1O[C@@H](OC[C@H]2O[C@@H](OCCc3ccccc3)[C@H](O)[C@@H](O)[C@@H]2O)[C@H](O)[C@H](O)[C@H]1O do in these assays?
BJeLR viability: -1.8; A1 inh: -1.0

How did C[C@H]1CN([C@@H](C)CO)C(=O)c2cccc(NS(=O)(=O)c3ccc(F)cc3)c2O[C@H]1CN(C)Cc1ccc(C(=O)O)cc1 do in these assays?
BJeLR viability: 2.4

Results for CCN(CC)c1nc(C#N)nc(OC)n1 ?
BJeLR viability: -0.9; A1 inh: 0.2

What do the screens show for `COc1ccccc1N1CCN(CC(O)COc2cccc3ccccc23)CC1` (stereo not given)?
BJeLR viability: 2.6; A1 inh: 0.2

Results for CC[C@H](C)C(=O)O[C@H]1CCC=C2C=C[C@H](C)C(CCC3C[C@@H](O)CC(=O)O3)[C@H]21 (stereo not given in full) ?
BJeLR viability: 9.0; A1 inh: 1.2

What do the screens show for `C[C@H](CO)N1C[C@H](C)[C@H](CN(C)C)Oc2ccc(NC(=O)CCCN(C)C)cc2C1=O`?
BJeLR viability: 2.6; A1 inh: -0.8

Results for CN(C)/C=N/c1nnc(SCC(=O)c2ccc(F)cc2)s1 ?
BJeLR viability: 1.8; A1 inh: -0.2

Results for C[C@@H]1CN([C@@H](C)CO)C(=O)c2cc(N(C)C)ccc2O[C@@H]1CN(C)S(C)(=O)=O ?
BJeLR viability: -3.1; A1 inh: 0.8

What do the screens show for `Cc1ccccc1-c1nc(CS(=O)(=O)CC(=O)NCc2ccc3c(c2)OCO3)c(C)o1`?
BJeLR viability: -1.0

What do the screens show for `O=C(O)/C=C/c1ccc(-c2ccc(Br)cc2)o1`?
BJeLR viability: -4.3; A1 inh: -5.9

Results for C[C@@H]1CN([C@H](C)CO)C(=O)c2cc(NC(=O)c3ccncc3)ccc2O[C@@H]1CN(C)Cc1ccc(C(=O)O)cc1 ?
BJeLR viability: -1.3; A1 inh: 0.3

Results for Cc1ccc(Cn2cc3c(n2)-c2c(oc(C(=O)NCCCN4CCCCCC4)c2C)CC3)cc1 ?
BJeLR viability: 11; A1 inh: 1.1

How did CSC(=Nc1ccccc1C(F)(F)F)N1CCCC1 do in these assays?
BJeLR viability: -4.6; A1 inh: -0.4

How did CC(C)NC(=O)N(C)C[C@H]1Oc2c(cccc2N(C)C)C(=O)N([C@@H](C)CO)C[C@H]1C do in these assays?
BJeLR viability: -4.6

What do the screens show for `COc1ccc(NC(=O)Nc2ccc3c(c2)C(=O)N([C@H](C)CO)C[C@@H](C)[C@@H](CN(C)S(=O)(=O)c2cn(C)cn2)O3)cc1`?
BJeLR viability: -3.6; A1 inh: 0.2

Results for COc1ccc(S(=O)(=O)N(C)C[C@H]2Oc3ccc(NC(=O)C4CC4)cc3C(=O)N([C@H](C)CO)C[C@H]2C)cc1 ?
BJeLR viability: 15; A1 inh: -0.3

What do the screens show for `COc1ccc(C(=O)OCC(=O)n2c(C)c(C)c3ccccc32)cc1`?
BJeLR viability: 6.3; A1 inh: -0.7

Results for CCn1c(=O)cc(SCC(=O)NCCc2ccc(C)cc2)c2ccccc21 ?
BJeLR viability: 0.3

Results for COc1ccc(CN(C)C[C@H]2Oc3c(NC(=O)c4cnccn4)cccc3C(=O)N([C@@H](C)CO)C[C@@H]2C)cc1 ?
BJeLR viability: 1.3

How did CC(C)(C)CC(=O)NCc1cn2ccsc2n1 do in these assays?
BJeLR viability: -3.4; A1 inh: 0.9

Results for Cc1noc(C)c1NC(=O)Nc1cccc2c1O[C@@H](CN(C)Cc1ccc(C(F)(F)F)cc1)[C@H](C)CN([C@H](C)CO)C2=O ?
BJeLR viability: 0.0

Results for Cc1noc(C)c1NC(=O)Nc1cccc2c1O[C@@H](CN(C)Cc1ccc(C(F)(F)F)cc1)[C@H](C)CN([C@@H](C)CO)C2=O ?
BJeLR viability: 4.7

Results for N#C[C@@H]1O[C@H](COC(=O)c2ccccc2)[C@@H](OC(=O)c2ccccc2)[C@H]1OC(=O)c1ccccc1 ?
BJeLR viability: -1.8; A1 inh: 0.2

How did COC(=O)c1c(C)nn(-c2ccc(OC(F)(F)F)cc2)c1-c1snnc1C do in these assays?
BJeLR viability: 0.9; A1 inh: -0.6

Results for Clc1ccc(-c2nc(Sc3nc(-c4cccs4)ns3)n[nH]2)cc1 ?
BJeLR viability: -2.7; A1 inh: -0.2

Results for Cc1cc(C(=O)Nc2cccc3c2O[C@@H](CN(C)Cc2ccccc2)[C@H](C)CN([C@H](C)CO)C3=O)n(C)n1 ?
BJeLR viability: -3.8

How did O=S(=O)(Nc1ccc2c(c1)OCCO2)c1csc(-c2cc(C(F)(F)F)on2)c1 do in these assays?
BJeLR viability: 0.4

What do the screens show for `Cc1cc2c(cc1S(=O)(=O)N(C)Cc1ccccc1)OCCN2C`?
BJeLR viability: -0.1

How did C[C@@H]1CN([C@H](C)CO)C(=O)c2cc(NS(=O)(=O)c3cccs3)ccc2O[C@H]1CN(C)S(C)(=O)=O do in these assays?
BJeLR viability: 2.0; A1 inh: -0.8

What do the screens show for `C[C@H](CO)N1C[C@H](C)[C@H](CN(C)Cc2ccc(-c3ccccc3)cc2)Oc2c(NC(=O)NC3CCCCC3)cccc2C1=O`?
BJeLR viability: 0.9

What do the screens show for `CCOC(CCn1c(=S)[nH]c2cc(C(=O)OC)ccc2c1=O)OCC`?
BJeLR viability: -2.6; A1 inh: 0.2

How did C[C@H]1CN([C@@H](C)CO)C(=O)c2cc(NS(=O)(=O)c3cccs3)ccc2O[C@H]1CN(C)CC1CCCCC1 do in these assays?
BJeLR viability: 3.2; A1 inh: 0.1

How did C[C@H](CO)N1C[C@H](C)[C@@H](CN(C)S(=O)(=O)c2ccc(F)cc2)Oc2ccc(NC(=O)Cc3cn(C)c4ccccc34)cc2C1=O do in these assays?
BJeLR viability: 0.5; A1 inh: 0.6

What do the screens show for `COc1ccc(C(=O)Cn2ccnc2C(=O)NCCc2ccc(Cl)cc2)cc1`?
BJeLR viability: -4.8; A1 inh: 2.5

Results for Cc1c2c(=O)[nH]ncc2c(-c2ccccc2)n1CCSCc1c(F)cccc1Cl ?
BJeLR viability: 0.5; A1 inh: -0.6

What do the screens show for `CSc1ccc(CCNC(=O)c2csc3c2CCCC3)cc1`?
BJeLR viability: -0.8

Results for C[C@@H]1CN([C@H](C)CO)C(=O)c2cccc(N(C)C)c2O[C@@H]1CN(C)Cc1ccccc1 ?
BJeLR viability: 6.8

How did O=C(N/C(=C\c1ccc(-c2ccc(Cl)cc2Cl)o1)C(=O)N1CCCC1)c1ccccc1 do in these assays?
BJeLR viability: -2.7; A1 inh: -1.8

What do the screens show for `C[C@@H]1CN([C@@H](C)CO)C(=O)c2cccc(NC(=O)NC3CCCCC3)c2O[C@H]1CN(C)S(=O)(=O)c1cccs1`?
BJeLR viability: -1.1

What do the screens show for `CNC[C@H]1Oc2ccc(NC(=O)Nc3ccc4c(c3)OCO4)cc2C(=O)N([C@H](C)CO)C[C@H]1C`?
BJeLR viability: -1.4; A1 inh: -0.6

What do the screens show for `O=C(CCC1CCCCC1)Nc1ccc(-c2cn3cccnc3n2)cc1`?
BJeLR viability: -5.8

What do the screens show for `Cc1cc(C(=O)NN2C3CSC2CS3)no1`?
BJeLR viability: 1.7; A1 inh: 0.6

What do the screens show for `C=CCNC(=S)NC1(C)CCS(=O)(=O)C1` (stereo not given)?
BJeLR viability: -5.0; A1 inh: 0.9

Results for CCOC(=O)c1c(NC(=O)c2nc3ncccn3n2)sc2c1CCC(CC)C2 (stereo not given) ?
BJeLR viability: 2.8; A1 inh: 0.0

Results for CN(C)/C=N/C1N=C(C2CC2)N(C)C(=O)N1 (stereo not given) ?
BJeLR viability: 4.2; A1 inh: -0.5

How did CC(C)NC(=O)N(C)C[C@H]1Oc2c(NC(=O)Nc3ccccc3)cccc2C(=O)N([C@H](C)CO)C[C@@H]1C do in these assays?
BJeLR viability: -3.9

By substructure: the entries above containing an NH in an aromatic ring (4)
How did O=C(Cc1ccccc1)NCCc1c[nH]c2ccccc12 do in these assays?
BJeLR viability: -0.3; A1 inh: 0.1

Results for Clc1ccc(-c2nc(Sc3nc(-c4cccs4)ns3)n[nH]2)cc1 ?
BJeLR viability: -2.7; A1 inh: -0.2

What do the screens show for `CCOC(CCn1c(=S)[nH]c2cc(C(=O)OC)ccc2c1=O)OCC`?
BJeLR viability: -2.6; A1 inh: 0.2

Results for Cc1c2c(=O)[nH]ncc2c(-c2ccccc2)n1CCSCc1c(F)cccc1Cl ?
BJeLR viability: 0.5; A1 inh: -0.6

Not all compounds are listed; count on the stated rates, not on these rows.
